Screening results as filed in PubChem.
NPYLR7 ag: mosquito NPYLR7 agonism; hit rate 0.15% among 270,000; HEK293T NPYLR7/Galpha15, GCaMP6s calcium fluorescence; activation, % at 10 µM; in the data active = activation above about 40%;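 also: 0% = vehicle and 100% = reference agonist at the receptor; some compounds past the cut are filed as inactive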
NPYLR7 ag max-min: second read-out of NPYLR7 ag, no call of its own (marks repeat the call); activation, %; measured here: Max-Min RFU normalised activation; some inactives read as strong as hits;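 span of the calcium signal over five minutes; 0% = vehicle and 100% = native peptide agonist; compound fluorescence can raise it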
Numbers without * were called inactive.

SMILES | NPYLR7 ag | NPYLR7 ag max-min
Cc1ccc(C(=O)NNC(=O)c2ccc3c(c2)OCCO3)c(C)c1 | 2 | 0
COc1ccc(N2CCN(Cc3nc4c(c(=O)n(C)c(=O)n4C)n3C(C)C(C)=O)CC2)cc1 (stereo not given) | 1 | -1
CCOC(=O)Cc1csc(=Nc2ccc(C)cc2C)n1CCCO | -10 | -12
O=C(c1ccc(C(F)(F)F)cc1)N1CCSC1c1cccc(F)c1 (stereo not given) | 2 | 5
CC1(C)OC2Cc3ccccc3CC2O1 (stereo not given) | 15 | 15
COc1cc([N+](=O)[O-])ccc1NC(=O)CCl | -4 | -10
COc1ccc(CCN(C)c2nc(SCc3ccc(C(=O)N4CCCC4)cc3)nc(C)c2C)cc1OC | 3 | 6
CCN(Cc1c(F)cccc1Cl)C(=O)c1cnn2ccn(C)c12 | 1 | -1
CCc1ccc(S(=O)(=O)NCCc2csc3nc(-c4cccc(F)c4)nn23)s1 | 15 | 11
Cc1ccc(-c2nc(C=Nc3cccnc3)c(O)o2)cc1 | -2 | -7
O=c1oc2ccccc2cc1-c1csc(NNc2ccccc2)n1 | -2 | -10
Cc1nc(-n2cnnc2)ccc1-c1ccc(C(N)=O)cc1 | 3 | 2
O=C(NCc1ccc(OCc2ccccn2)cc1)c1ccc2c(c1)OCCO2 | -6 | -12
CC(C(=O)Nc1ccccc1)N1CCCN(c2ccc(C(F)(F)F)cn2)CC1 (stereo not given) | -1 | -2
COc1cc(NC2CCN(Cc3ccccc3)CC2)ncn1 | -1 | -2
O=C1CN(Cc2cccc3cccnc23)CC(OCc2ccccn2)CN1C1CCCCC1 (stereo not given) | 13 | 2
CSc1nc(=O)[nH]c(C)c1C(=O)NC1CC1c1cccc(Cl)c1 (stereo not given) | 1 | -3
CN=c1scc(-c2cccc(Br)c2)n1N=Cc1ccccc1O | 2 | -1
CCN(CC)c1onc(-c2ccc(F)cc2)c1CN(CCN(C)C)C(=O)c1ccc(Cl)cc1 | 11 | 11
COc1cc2ncc(S(=O)(=O)c3ccccc3)c(Nc3ccccc3)c2cc1OC | 4 | 2
Cc1ccccc1-n1c(SCc2cccc(C(F)(F)F)c2)nnc1-c1ccc(F)cc1 | 3 | 7
CC(=O)N1CCN(c2ccc(Br)cc2)C(=O)C1C (stereo not given) | 2 | 5
CCOC(=O)c1nn(-c2ccccc2C)c(=O)cc1N1CCC(C)CC1 | 5 | 1
CCOC(=O)C1(Cc2cccc(OC)c2)CCN(Cc2cnc(SC)nc2)CC1 | 4 | 0
Cc1c(Cl)cccc1NC(=O)CC(=O)N1CCC(N(C)C)C1 (stereo not given) | 1 | -5
CN1CCC(N(C)c2ccc(C(=O)N3CCC(CCn4cccn4)CC3)cn2)C1 (stereo not given) | 5 | 3
CCOC(=O)N1CCN(c2nc3c([nH]2)c(=O)n(C)c(=O)n3C)CC1 | -4 | -4
Cc1ccc(-c2ccnc3c(C(=O)NCc4ccc(Cl)cc4)cnn23)cc1C | 2 | 3
CCCOC(=O)CSc1[nH]c(=O)cc(C)c1C#N | -1 | -1
Fc1ccc(Nc2ccnc3ccc(Cl)cc23)cc1 | -5 | -6
Cc1c(Cl)ccc2sc(N(Cc3ccncc3)C(=O)c3ccc(C#N)cc3)nc12 | -4 | -9
CC(C)CC(C)NC(=O)c1ccc(SCc2ccccc2)nc1 (stereo not given) | -12 | -19
c1cn(Cc2ccc(-n3cncn3)cc2)c(-c2ccc3nonc3c2)n1 | 15 | 5
CCc1cnc(C)nc1N(C)Cc1nncn1C(C)C | 16 | 8
CC1=C(OS(=O)(=O)c2ccc(C)cc2)C(C)(C)C(c2ccccc2)OC1=O (stereo not given) | 20 | 11
CNc1cncc(-c2cnn(CC(C)C)c2)n1 | 3 | 0
O=C1OCC(OCc2ccccc2)C(OCc2ccccc2)C1OCc1ccccc1 (stereo not given) | 7 | 4
CC1C(=O)N(c2ccc(F)cc2F)CCN1C(=O)C1CC1 (stereo not given) | 3 | 12
O=C(CCC1CCN(C(=O)c2cncs2)CC1)NCc1ccc(F)cc1 | 8 | 9
CC1CCCCN1CCCNC(=O)c1ccc(CSc2nc(Cl)cc(N3CCN(c4ccccc4F)CC3)n2)cc1 (stereo not given) | -5 | 0

The closing six records of the section before come first, to join the parts:
SMILES | NPYLR7 ag | NPYLR7 ag max-min
CC1=C(OS(=O)(=O)c2ccc(C)cc2)C(C)(C)C(c2ccccc2)OC1=O (stereo not given) | 20 | 11
CNc1cncc(-c2cnn(CC(C)C)c2)n1 | 3 | 0
O=C1OCC(OCc2ccccc2)C(OCc2ccccc2)C1OCc1ccccc1 (stereo not given) | 7 | 4
CC1C(=O)N(c2ccc(F)cc2F)CCN1C(=O)C1CC1 (stereo not given) | 3 | 12
O=C(CCC1CCN(C(=O)c2cncs2)CC1)NCc1ccc(F)cc1 | 8 | 9
CC1CCCCN1CCCNC(=O)c1ccc(CSc2nc(Cl)cc(N3CCN(c4ccccc4F)CC3)n2)cc1 (stereo not given) | -5 | 0
COc1ccc(Cl)cc1CN1C(=O)C(C)Oc2c(C(C)=O)cccc21 (stereo not given) | 5 | 2
Cc1cccc(CNc2cc(S(=O)(=O)N3CCOCC3)ccc2N2CCCC2)c1 | 7 | 1
COc1ccccc1Oc1cnn(C)c(=O)c1Nc1cccc(C(=O)N2CCN(C)CC2)c1 | 8 | 12
CSCC(=O)Nc1nc(-c2ccc3c(c2)OCCO3)cs1 | 6 | 1
CN1C[C@@H]2CC[C@H](CC1=O)N2C(=O)CCn1cncn1 | 6 | 5
C=CCNC(=O)c1ccccc1N1CCC(NC(=O)c2ccco2)CC1 | -2 | 7
O=[N+]([O-])c1ccccc1CN1CCCn2cccc2C1c1cccc(O)c1 (stereo not given) | 7 | 10
CC1CCCN(c2nc3sc(C(=O)O)cc3[nH]2)C1 (stereo not given) | -1 | -6
NC(=O)C1CCN(C(=O)C2CCCN(S(=O)(=O)N3CCOCC3)C2)CC1 (stereo not given) | 5 | 1
O=C(CSc1nnc(-c2ccc(Cl)cc2)o1)N1CCCCCCC1 | -2 | 0
CCN(CC)c1ccc(CN(CC(C)C)C(=O)CC(C)(C)C)c(OS(C)(=O)=O)c1 | 0 | 7
CCOC(=O)CCC(=O)N1CCCN(c2nc(CC(C)C)nc3onc(-c4cccc(C(F)(F)F)c4)c23)CC1 | 14 | 9
COc1cc(OC)c(OC)cc1C=Nn1c(-c2ccccc2Br)n[nH]c1=S | 1 | -1
CC(C)CNC(=O)C1(C)CCCN1C(=O)COc1ccc(Cl)cc1Cl (stereo not given) | 2 | 0
Cn1ccnc1-c1nccn1Cc1ccccc1-n1cccn1 | 20 | 6
Cc1c(CNc2nc(-c3cccnc3)nc3c2CNC3)oc2ccccc12 | 26 | 10
CCN(CC)C(=O)Oc1ccc2c(ccn2Cc2ccccc2Cl)c1NC(=O)C(OC(C)=O)c1ccccc1 (stereo not given) | -1 | -5
CC1(Cc2cc(Cl)ccc2C(F)(F)F)C(=O)Nc2ccc(-c3ccncc3)cc21 (stereo not given) | 2 | 2
CN(CCC1CCCCO1)C(=O)CC1(c2cccc(C(F)(F)F)c2)CC(=O)N(C2CC2)C1=O (stereo not given) | 14 | 5
Cc1nn(C)c(C(=O)N(C)CC2COc3ccccc3O2)c1Cl (stereo not given) | 9 | 6

Some values from the list:
For NPYLR7 ag, `CSCC(=O)Nc1nc(-c2ccc3c(c2)OCCO3)cs1` has the entry 6
For NPYLR7 ag, `NC(=O)C1CCN(C(=O)C2CCCN(S(=O)(=O)N3CCOCC3)C2)CC1` (stereo not given) has the entry 5

Quoted at random: 3 compounds from above, in no set order.
SMILES | NPYLR7 ag | NPYLR7 ag max-min
CCOC(=O)Cc1csc(=Nc2ccc(C)cc2C)n1CCCO | -10 | -12
NC(=O)C1CCN(C(=O)C2CCCN(S(=O)(=O)N3CCOCC3)C2)CC1 (stereo not given) | 5 | 1
CCOC(=O)CCC(=O)N1CCCN(c2nc(CC(C)C)nc3onc(-c4cccc(C(F)(F)F)c4)c23)CC1 | 14 | 9

Next entries follow:
SMILES | NPYLR7 ag | NPYLR7 ag max-min
Cc1ccc(NC(=O)CN2CCN(C(=O)CSc3ncccc3Cl)CC2)cc1 | 1 | -3
CCc1cccc2c(C(CC(=O)N3CCN(c4ccccc4F)CC3)c3ccc(OC)cc3OC)c[nH]c12 (stereo not given) | 10 | 0
Cc1nnc2c3c4c(sc3nc(C)n12)CCCC4 | 0 | -5
CCOc1cccc(-c2cc(C(=O)NCc3ccc4c(c3)OCO4)c3ccccc3n2)c1 | 12 | 6
COc1cc(-c2cc(C(=O)N/N=C\c3ccccc3O)[nH]n2)ccc1OC(C)C | 2 | -2
OC1CCC(Nc2nc(-c3ccccc3)nc3[nH]ccc23)CC1 (stereo not given) | -4 | -8
CCC(C)NC(=O)CN1C(=O)NC(CCSC)C1=O (stereo not given) | -1 | -9
O=c1[nH]c2ccccc2c(=O)n1CCCN1CCN(c2cccc(Cl)c2)CC1 | -26 | -32
COCCCn1c(CN(C)C(C)c2nc(C)sc2C)cnc1S(C)(=O)=O (stereo not given) | 15 | 7
CC(C)=CC(=O)N1CCC2(CC1)NCCNC2=O | 3 | 2
CC(=O)Nc1ccc(NC(=O)CSc2nc3ccccc3s2)cc1 | 4 | 4
COc1ccccc1CN(C)C(=O)c1coc(CN2CCN(c3ncccn3)CC2)n1 | -2 | -6
O=C(COC(=O)c1ccc(N2CCCC2)c([N+](=O)[O-])c1)Nc1cccc2ccccc12 | 9 | 18
CCC1CN(C(=O)c2coc(CN3CCN(c4ncccn4)CC3)n2)CCO1 (stereo not given) | -1 | -2
Cc1cc(NC(=O)C2(C)CCN(C)C2)c2ccccc2n1 (stereo not given) | 3 | 5
COc1cccc(CNC(=O)c2c(C)noc2-c2cccs2)c1 | 20 | 9
CCC(C)C(=O)Nc1cc(S(=O)(=O)N(CC)CC)ccc1N1CCCC1 (stereo not given) | 5 | 3
O=C(Nc1ccccc1)N1CCN(CC=Cc2ccccc2)CC1 | 2 | -4
Cn1cc(N)c(C(=O)Nc2ccc3c(c2)C(=O)NC3=O)n1 | -6 | -6
Cc1cnc(Cn2ccnc2-c2cccc(C(F)(F)F)c2)cn1 | -2 | -2
CCN(C)c1ccnc(N2CCN(Cc3cc(F)ccc3F)CC2)n1 | 1 | 6
CCOC(=O)c1cn[nH]c1S(=O)(=O)N(CC)c1cccc(C)c1 | 2 | -2
Cc1cc(C)cc(CC(=O)N2CCC2(C)C(=O)NS(=O)(=O)c2ccc(Cl)s2)c1 (stereo not given) | 3 | 2
OCCCc1nc2ccc(Cc3ccc4nc(CCCO)[nH]c4c3)cc2[nH]1 | 0 | 1
CCCC(C)c1cc(N)n[nH]1 (stereo not given) | 0 | -5
CCOCCNC(=O)c1ccc(-n2nc(C(=O)OCC)cc2C2CC2)cc1 | -1 | 7
O=C(NC1(c2ccccc2)CCC1)c1nc(N2CCCC2)ncc1Cl | -1 | -1
Fc1ccc(N=c2scc(-c3ccc4c(c3)OCCO4)n2C2CCCC2)cc1 | 1 | 5
Cc1nn(C)c(C)c1S(=O)(=O)N1CC(c2ccccn2)C1 | 9 | 2
CC1=C(C(=O)N(CC2CCN(Cc3ccccc3C)CC2)CC2CCCO2)OCCO1 (stereo not given) | 12 | 9
Cc1nc(C(C)C)cc(N2[C@@H]3CC[C@H]2CC(O)C3)n1 (stereo not given in full) | 0 | 0
Cc1noc(C)c1NS(=O)(=O)c1ccc(C(=O)NCC(F)(F)F)cc1 | -1 | -4
O=C(NCCO)C(=O)N1CCOCC1 | -4 | 1
COc1cccc(OC)c1C(=O)N1CCN(C(C(=O)NC(C)c2ccccc2)C2CCCC2)CC1 (stereo not given) | -5 | -3
O=C(c1cc(S(=O)(=O)Nc2cccc(C(F)(F)F)c2)c(Cl)cc1Cl)N1CCC1 | 8 | 7

Four of these compounds, reformatted.
CCN(C)c1ccnc(N2CCN(Cc3cc(F)ccc3F)CC2)n1
- NPYLR7 ag: 1
- NPYLR7 ag max-min: 6
CCOC(=O)c1cn[nH]c1S(=O)(=O)N(CC)c1cccc(C)c1
- NPYLR7 ag: 2
- NPYLR7 ag max-min: -2
Cc1cc(C)cc(CC(=O)N2CCC2(C)C(=O)NS(=O)(=O)c2ccc(Cl)s2)c1 (stereo not given)
- NPYLR7 ag: 3
- NPYLR7 ag max-min: 2
OCCCc1nc2ccc(Cc3ccc4nc(CCCO)[nH]c4c3)cc2[nH]1
- NPYLR7 ag: 0
- NPYLR7 ag max-min: 1

Only part of the results is shown; rates above refer to the full screens.
